KCNQ2 pot: potentiators of rat KCNQ2 potassium channel | Potassium voltage-gated channel subfamily KQT member 2 (Rattus norvegicus), O88943 | CHO-K1 KCNQ2, FluxOR thallium flux fluorescence; stronger effect = higher value | B-score at 10 µM | hit rate 0.54% among 310,000;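 active means fluorescence ratio B-score at least 3 SD of library B-scores, with initial fluorescence B-score within 3 SD, cut at about 5.3 in these data; same plate scores as AID 2156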;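 further: B-score of peak minus minimum over baseline fluorescence ratio after K+ and Tl+ stimulus; positive B-score means potentiation of KCNQ2 with more thallium influx and brighter signal; only the inactives scoring about 0 or higher are listed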
Target sequence (O88943 whole entry, looked up): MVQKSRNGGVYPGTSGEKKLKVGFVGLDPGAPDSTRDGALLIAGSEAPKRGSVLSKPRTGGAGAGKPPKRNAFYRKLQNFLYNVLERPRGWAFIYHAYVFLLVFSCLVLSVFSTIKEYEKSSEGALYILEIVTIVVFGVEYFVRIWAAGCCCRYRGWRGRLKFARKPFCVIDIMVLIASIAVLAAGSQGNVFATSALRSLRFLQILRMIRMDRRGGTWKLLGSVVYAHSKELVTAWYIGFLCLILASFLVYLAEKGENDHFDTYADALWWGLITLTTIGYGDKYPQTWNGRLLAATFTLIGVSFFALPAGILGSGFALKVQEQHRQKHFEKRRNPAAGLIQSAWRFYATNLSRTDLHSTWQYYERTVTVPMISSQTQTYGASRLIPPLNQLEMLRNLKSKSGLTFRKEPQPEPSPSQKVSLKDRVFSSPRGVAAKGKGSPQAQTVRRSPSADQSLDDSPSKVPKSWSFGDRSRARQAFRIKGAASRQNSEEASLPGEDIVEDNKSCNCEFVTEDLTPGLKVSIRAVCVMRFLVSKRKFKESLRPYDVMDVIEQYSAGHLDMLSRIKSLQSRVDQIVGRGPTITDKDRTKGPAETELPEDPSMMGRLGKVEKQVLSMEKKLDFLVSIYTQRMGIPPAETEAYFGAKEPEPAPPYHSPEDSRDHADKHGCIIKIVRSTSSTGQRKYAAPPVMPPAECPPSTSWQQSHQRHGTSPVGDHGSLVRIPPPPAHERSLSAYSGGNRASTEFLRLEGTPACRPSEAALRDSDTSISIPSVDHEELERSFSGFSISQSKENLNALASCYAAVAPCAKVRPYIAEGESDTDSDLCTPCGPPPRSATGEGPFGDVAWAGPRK
KCNQ2 pot baseline: recorded beside KCNQ2 pot, whose call it bears; B-score; compound at 10 µM; measured here: initial fluorescence intensity artifact check;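 brightness before thallium and not channel activity; 0 = typical well and far values either way flag optical interference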
Starred values were filed as active, the others as inactive. Only part of the results is shown (hit frequency here may not be typical).

no.	structure	KCNQ2 pot	KCNQ2 pot baseline
1	CS(=O)(=O)N(CC(N)=O)Cc1ccc(Cl)cc1	1.1	-1.2
2	CCOC(=O)c1oc2ccccc2c1CN1CCCCC1	0.03	-1.6
3	COc1ccc(/C(C)=N/Nc2nc(C)c(C(C)=O)s2)cc1	1.3	-2
4	CCC(=O)NC1=C(Nc2ccc(N)cc2)C(=O)c2ccccc2C1=O	0.84	-0.1
5	O=C(COc1cccc2cccnc12)N1CCc2ccccc21	0.01	0.69
6	Cc1ccc(CSCC(=O)N(C)CC(=O)Nc2ccccc2Cl)cc1	0.45	0.78
7	Nc1ccc(NC(=O)c2ccco2)c(Cl)c1	1.7	-4
8	NC(=S)N/N=C/c1ccccc1OC(=O)c1cc2ccccc2oc1=O	0.97	0.53
9	CC1CCN(c2nnc(NC(=O)Cn3c(=O)oc4ccccc43)s2)CC1	0.68	-0.06
10	Cc1cc(SCC#N)nc2ccccc12	0.36	-1.4

Part of the list above in a different format.
3: COc1ccc(/C(C)=N/Nc2nc(C)c(C(C)=O)s2)cc1
4: CCC(=O)NC1=C(Nc2ccc(N)cc2)C(=O)c2ccccc2C1=O
5: O=C(COc1cccc2cccnc12)N1CCc2ccccc21
6: Cc1ccc(CSCC(=O)N(C)CC(=O)Nc2ccccc2Cl)cc1
7: Nc1ccc(NC(=O)c2ccco2)c(Cl)c1
8: NC(=S)N/N=C/c1ccccc1OC(=O)c1cc2ccccc2oc1=O
9: CC1CCN(c2nnc(NC(=O)Cn3c(=O)oc4ccccc43)s2)CC1

Screen / compound no.,3,4,5,6,7,8,9
KCNQ2 pot,1.3,0.84,0.01,0.45,1.7,0.97,0.68
KCNQ2 pot baseline,-2,-0.1,0.69,0.78,-4,0.53,-0.06

Next structures
no.	structure	KCNQ2 pot	KCNQ2 pot baseline
11	CC(C)(C)CC(=O)Nc1ccccc1N1CCN(c2ccccc2)CC1	0.8	0.11
12	CCc1cc2c(SCC(=O)c3ccccc3)ncnc2s1	0.68	-0.2
13	Cc1c(C(=O)NCc2ccccc2)oc2ccc(S(=O)(=O)N3CCCC3)cc12	1.3	-0.83
14	CC(NC(=O)NC1CCCCC1)C(c1cccs1)N1CCN(C)CC1 (stereo unspecified)	0.92	0.82
15	CC(=O)N1c2ccc(S(=O)(=O)NCc3ccco3)cc2CC1C (stereo unspecified)	0.48	-3.3
16	COc1ccc(CC(=O)N(C)Cc2ccc(C(C)(C)C)cc2)cc1S(=O)(=O)N1CCOCC1	1.3	-0.36
17	COCCn1c(SCC(=O)N2CCCCC2)nc2c(c1=O)SCC2	0.14	-0.68
18	O=C1c2cccc(Cl)c2C(=O)N1c1ccccn1	1.3	0.8
19	COC(=O)c1cccc(NC(=S)NCc2ccco2)c1	1.5	0.75
20	Nn1c(SCC(=O)NC(=O)NCc2ccco2)nnc1-c1ccc(OC(F)F)cc1	1.9	0.04
21	O=C(NCCN1CCCCCC1)c1ccc(CS(=O)(=O)c2ccc(Br)cc2)o1	0.08	-0.61
22	CCOc1ccc(CCNC(=O)C2CCN(S(=O)(=O)N3CCC(C)CC3)CC2)cc1OCC	1.1	0.02
23	NC(=O)CC(NC(=O)Cc1cccc2ccccc12)c1ccc(NC2CCCCC2)c([N+](=O)[O-])c1 (stereo unspecified)	1	0.1
24	Cc1ccc(S(=O)(=O)NCCC(=O)N2CCCCCC2)cc1	0.07	-0.14
25	O=C(NCc1cccs1)Nc1ccc(Cl)cc1	2.6	-0.93
26	CCNC(=O)NC(=O)COC(=O)c1cccc(S(=O)(=O)N2CC3(C)CC2CC(C)(C)C3)c1 (stereo unspecified)	1.7	-0.4
27	Cc1ccc(C(=O)COc2ccc3ccc(=O)oc3c2)cc1	0.16	-0.15
28	Cc1ccc(S(=O)(=O)N2CCCC(C(=O)NCCCN3CCCCC3C)C2)cc1 (stereo unspecified)	0.2	1.2
29	O=C(c1ccc(F)cc1)N1CCC(C(=O)N2CCN(S(=O)(=O)c3cccc(Cl)c3)CC2)CC1	0.95	1.6
30	Cn1ccnc1C(=O)c1cccc([N+](=O)[O-])c1	0.07	0.09
31	Cc1ccc(S(=O)(=O)c2nc(S(C)(=O)=O)sc2N2CCN(C)CC2)cc1	0.95	0.09
32	O=C(COC(=O)/C=C/c1ccc(F)cc1)NCc1ccco1	0.09	0.2
33	COc1ccc2c(C(=O)CN3CC(C)OC(C)C3)c[nH]c2c1 (stereo unspecified)	1.9	0.47
34	O=C(Cn1nc(-c2ccc(Cl)cc2)c2ccccc2c1=O)NCC1CCCO1 (stereo unspecified)	1.1	-0.25
35	COCC(=O)N1CCC(Oc2ccc(C(=O)NCc3cc(C)n(C)n3)cc2)CC1	0.98	1.1
36	CCN(CC)S(=O)(=O)c1ccc2c(c1)NC(=O)C1CCCN21 (stereo unspecified)	0.72	-0.03
37	Cc1cc(C)c(NC(=O)Nc2ccccc2C)c(Cl)c1	0.11	0.06
38	C=CCNC(=S)Nc1sc2c(c1C(=O)OCC)CC(C)(CC)OC2 (stereo unspecified)	9.9*	0.01*
39	NC(=O)CC(NC(=O)c1cccc(Br)c1)c1ccc(N2CCC(N3CCCCC3)CC2)c([N+](=O)[O-])c1 (stereo unspecified)	0.86	-0.73
40	O=C(O)C1Nc2ccc(OC(F)(F)F)cc2C2C=CCC12 (stereo unspecified)	0.56	-0.42
41	COc1ccccc1NC(=O)CSc1ccc2nnc(-c3ccc(C)cc3)n2n1	1.3	-0.96
42	O=C(NC1CCCCCCC1)c1ccc(Br)cc1	0.14	-0.73
43	COc1ccc(-c2[nH]ncc2-c2cnc(C)s2)c(O)c1	2	-1.1
44	CN(C)CCCn1c(SCC(=O)Nc2nccs2)nnc1-c1ccncc1	0.56	-0.16
45	O=C(CSc1nnnn1C1CCCCC1)N1CCCC1	0.44	-1.1
46	Cc1nn(C)c(C)c1NC(=O)CSc1nc(Cc2ccccc2)nc2c1cnn2-c1ccccc1	1.3	-0.21
47	O=C(NCC(=O)N1CCCCC1)c1ccc2ccccc2c1	1.3	-1.3
48	CCOC(=O)c1cccc(NC(=O)CSc2nnnn2C)c1	1.5	-1.2
49	O=C(c1cccc2ccccc12)C1CCCN(C(=O)CCCn2cncn2)C1 (stereo unspecified)	1.2	0.19
50	OCCN1CCN(C(=S)Nc2ccccc2)CC1	1.1	0.11
51	CC1CC(C)CN(C(=O)CCS(=O)(=O)c2ccc3c(c2)NC(=O)CS3)C1 (stereo unspecified)	0.34	-0.44
52	Cc1ccc(C(C(=O)NC2CCCC2)N2CCCC(C)C2)cc1 (stereo unspecified)	0.37	0.23
53	CC(C)c1ccc2nc3sc(C(=O)N4CCc5ccccc5C4)c(N)c3cc2c1	0.14	-0.08
54	CCc1nc2ccc(C(=O)NCCc3ccco3)cc2nc1CC	1.9	-2
55	C=CCNC(=O)c1ccc(N(C)S(=O)(=O)c2ccc(OC)cc2)cc1	0.41	-1.1
56	O=C(Oc1cccc2c(OC(=O)N3CCCC3)cccc12)N1CCCC1	0.39	0.72
57	CCCc1nc2oc3cc(OC)ccc3c(=O)c2c(=O)n1CCc1ccccc1	0.11	2.3
58	Cc1ccc(CNC(=O)CN(C(=O)C2(C)CC(=O)N=C3C=CC=CN32)c2cc(C)ccc2C)cc1 (stereo unspecified)	1.4	-0.81
59	CC1(C)Cc2c(cnn2-c2ccc(F)cc2)C(NC(=O)C2CCC2)C1 (stereo unspecified)	0.52	-2.1
60	CCCNC(=O)c1onc(CSc2nc3ccccc3[nH]2)c1C(=O)NCCC	0.21	-0.09

Next compounds follow:
no.	structure	KCNQ2 pot	KCNQ2 pot baseline
61	COc1ccc(O)c(/C=N/NC(=O)CCC(=O)Nc2ccc(F)cc2)c1	0.07	0.79
62	CCC(C)n1c(=O)c2sccc2n2c(CCCC(=O)N3CCC(C(N)=O)CC3)nnc12 (stereo unspecified)	0.11	2.3
63	COC(=O)c1ccccc1OS(=O)(=O)N(C)C	1.4	0.03
64	COc1cccc(N2CC(C(=O)NC3CCCCC3)CC2=O)c1 (stereo unspecified)	1.1	-1.3
65	O=C(O)C1C2C=CC(O2)C1C(=O)NCc1ccccc1Br (stereo unspecified)	0.73	1.1
66	COc1ccc2[nH]c(C(=O)NCCN3CCCCC3)cc2c1	0.99	1.5
67	CC(C)C1CC(CCN)(c2ccccc2)CCO1 (stereo unspecified)	0.53	-0.23
68	Cc1cc2c(c(=O)n1Cc1cccnc1)C(Cc1ccccc1)C(C#N)=C(N)O2 (stereo unspecified)	0.06	0.81
69	Cn1c(=O)cc(OCCCC(=O)N2CCN(c3ccccc3)CC2)c2ccccc21	0.31	-0.66
70	O=C(CCN1C(=O)/C(=C\C=C\c2ccccc2)SC1=S)Nc1ccccc1C(=O)O	2.4	1.6

Pulled by compound from above (2):
no.	structure	KCNQ2 pot	KCNQ2 pot baseline
65	O=C(O)C1C2C=CC(O2)C1C(=O)NCc1ccccc1Br (stereo unspecified)	0.73	1.1
66	COc1ccc2[nH]c(C(=O)NCCN3CCCCC3)cc2c1	0.99	1.5

Later entries
no.	structure	KCNQ2 pot	KCNQ2 pot baseline
71	O=C(NNC(=O)c1ccc(Cl)c(Cl)c1)c1ccncc1	0.58	0.71
72	Cn1c(=O)c2c(ncn2CC(O)CNc2cccc(Cl)c2)n(C)c1=O (stereo unspecified)	0.18	0.04
73	Cc1cccc(NC2(C(F)(F)F)N=C(c3ccccc3)NC2=O)n1 (stereo unspecified)	0.76	-1.5
74	O=C(O)C1CCCN1c1ncnc2c1oc1ccccc12 (stereo unspecified)	1.1	-1.1
75	CCSC1=NCCN1S(=O)(=O)c1ccc(F)cc1	0.04	-2.1
76	COc1ccc(NC2CCCN(C(=O)c3ccc4[nH]c(C)c(C)c4c3)C2)cc1OC (stereo unspecified)	0.09	1.2
77	COc1ccc(CCN2CC(C(=O)NCc3cnn(C(C)C)c3)CCC2=O)cc1 (stereo unspecified)	0.16	-2.1
78	COc1ccc(-c2ccc(CNCCCN3CCOCC3)o2)cc1Cl	0.66	0.01
79	Cc1ccc2nc(C)cc(OCC(=O)O)c2c1	1.6	0.09
80	O=C(NC1(C(F)(F)F)OCCO1)c1ccc(F)cc1	0.18	-0.57
81	CCN1C(C(=O)Nc2cc(C)on2)=C(O)c2ccccc2S1(=O)=O	1.7	0.98
82	CCOc1ccc(C(=O)Nc2c3c(nn2-c2ccc(F)cc2)CS(=O)C3)cc1 (stereo unspecified)	0.01	0.11
83	COc1cccc(CN2CC(C(=O)N(C)Cc3nc(C)cs3)CCC2=O)c1 (stereo unspecified)	0.51	0.8
84	OCC(O)C(O)C(O)C(O)c1nc2ccccc2[nH]1 (stereo unspecified)	1.1	0.09
85	Cc1cc(=O)oc(C)c1C(=O)Nc1ccc(N(C)C)cc1	0.05	1.4
86	COc1cc2[nH]c(C(=O)NCCc3ccccc3)cc2c(OC)c1OC	0.23	-0.78
87	CCOC(=O)N1CCN(C(=O)CSc2nnc(-c3cc(OC)cc(OC)c3)o2)CC1	1	0.08
88	CCOc1ccc(NS(=O)(=O)c2ccc(OCC)c3ncccc23)cc1	1.4	-0.08
89	Cc1ccc(OCCn2cnc3sc(C(N)=O)c(C)c3c2=O)cc1	1.1	0.01
90	Cc1c(C(=O)N2CCOCC2)oc2ccc(S(=O)(=O)N3CCCC3)cc12	0.5	0.43
91	O=C(NNc1ccc([N+](=O)[O-])cc1)C12CC3CC(CC(C3)C1)C2	2.3	-1.4
92	CCCCSc1ccc2nc(-c3ccc(C#N)cc3)cn2c1	2.1	-1.1
93	CCN(CC)CCCN1C(=O)C(O)=C(C(=O)c2ccco2)C1c1ccc(C)o1 (stereo unspecified)	1.1	-0.93
94	Cc1nnc(N2C(=O)c3ccc(Br)cc3C2=O)s1	0.15	-0.81
95	COC(=O)c1ccccc1OCCOCCOc1cccc2ccc(C)nc12	0.03	-0.69
96	O=C(O)c1ccc(S(=O)(=O)N2CCOCC2)o1	0.87	1.4
97	CCc1ccccc1NC(=O)CN(C)C(=O)CSc1nnc(Nc2ccc(C)cc2)s1	0.7	0.79
98	COc1ccc(S(N)(=O)=O)cc1C(=O)NCC(C)(C)N1CCOCC1	0.75	-2.8
99	Cc1ccc(C2c3c(oc4ccc(Cl)cc4c3=O)C(=O)N2CCCN2CCOCC2)o1 (stereo unspecified)	0.52	0
100	O=C(NCCN1CCOCC1)c1ccc(Cl)cc1[N+](=O)[O-]	2.2	0.28
101	CCC1CCCCN1CCNS(=O)(=O)c1ccc2c(c1)CCN2C(C)=O (stereo unspecified)	1.2	-0.25
102	COCCCn1c(=O)c2ccccc2n(CC(=O)Nc2ccc3c(c2)OCCO3)c1=O	3.4	-0.68
103	CN(C)CCNC(=O)c1ccccc1	0.09	-0.03
104	O=C(CSc1nnnn1-c1cccc2c1CCCC2)N1CCCC1	0.79	1.5
105	Cc1cc2nccc(-c3ccccn3)n2n1	0.8	-1.2
106	CCOc1ccc(C(=O)c2ccc(OCC)c(N)c2)cc1N	0.06	0
107	O=C(c1ccc([N+](=O)[O-])cc1)c1cc2ccc(O)cc2oc1=O	0.08	-0.01
108	CC(=O)Cn1cnc2c(cnn2-c2ccccc2)c1=O	0.1	-0.01
109	O=C(CN(C(=O)CNC(=O)c1ccco1)c1ccc(F)cc1)NC1CCCC1	2.6	-1.4
110	CCCCn1c(SCC(=O)c2ccc(O)cc2O)nc2cc(S(N)(=O)=O)ccc21	0.85	0.8
111	CCCCn1nc(C(=O)Nc2cc(S(=O)(=O)N(C)C)ccc2C)c2ccccc2c1=O	0.85	-2.2
112	CCN1CCc2c(C#N)c(N3CCCCC3)nc(NCc3ccccc3)c2C1	0.84	0.83
113	Cc1cc(C)cc(-n2nnc(C(=O)NCc3ccc(Cl)cc3)c2N)c1	0.33	0.97
114	Cc1ccc2c(c1)/C(=C/c1ccco1)C(=O)N2	0.86	-0.56

Source: PubChem BioAssay (Johns Hopkins Ion Channel Center)
